Screens deposited in PubChem by several laboratories.
FGF22 binding – binders of recombinant human FGF22 by thermal shift. SYPRO orange fluorescence; percent of sucrose octasulfate shift, DMSO zero. AID 651658. calls only at 9.99 µM. hit rate 1.5% among 340,000;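 active = melting point raised past a set limit in the mean and every replicate; inconclusive = no clear call; three in four hits are not shown here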
Target sequence (Q9HCT0 whole entry, looked up): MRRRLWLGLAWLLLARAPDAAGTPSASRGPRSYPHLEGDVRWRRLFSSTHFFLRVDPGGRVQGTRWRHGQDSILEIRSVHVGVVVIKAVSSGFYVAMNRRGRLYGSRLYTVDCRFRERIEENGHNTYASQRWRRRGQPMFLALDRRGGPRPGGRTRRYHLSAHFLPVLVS
E coli growth – E. coli growth inhibition; Escherichia coli growth, OD600, 23 h; hits give low values; OD600 absorbance (no concentration beside the values); hit rate 0.21% among 330,000;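 active = OD600 absorbance below the run mean of sample wells minus 3.6 SD, in any replicate, cut at about 0.56 in these data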;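 also: stock transfer was 300 nL into about 60 µL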
ALR inh – inhibitors of human sulfhydryl oxidase ALR; P55789; purified ALR, DTT oxidation, H2O2 HRP-luminol luminescence; inhibition, % (test concentration not listed); hit rate 3.8% among 290,000; AID 485317;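 active = mean and each replicate at 75% or more; inconclusive = only one of the two met; inactive = neither met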;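 also: stock transfer was 7.5 nL into about 7.5 µL; 0% = neutral wells and 100% = wells with inactivated enzyme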
Target sequence (P55789 whole entry, looked up): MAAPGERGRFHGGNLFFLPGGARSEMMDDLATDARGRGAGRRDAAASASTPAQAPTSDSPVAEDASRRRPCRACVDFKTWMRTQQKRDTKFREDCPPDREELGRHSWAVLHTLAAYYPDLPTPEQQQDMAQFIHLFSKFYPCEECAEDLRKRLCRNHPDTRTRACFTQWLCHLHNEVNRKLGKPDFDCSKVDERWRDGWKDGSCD
HNF4A DNA FP – change in binding of human HNF4 alpha to DNA. P41235. HNF4a-FITC DNA binding, fluorescence polarization, 1 h. activity change, % at 10 µM. hit rate 0.3% among 360,000. AID 1224865; in the data active = activity change above about 30%, passing the limit was not always enough;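 also: controls were the assay level and a saturating level of protein; the project sought stronger binding though the title names inhibitors; some compounds called inactive have numbers as strong as hits; positive values seem to mean higher polarization but the record does not say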
Target sequence (P41235 whole entry, looked up): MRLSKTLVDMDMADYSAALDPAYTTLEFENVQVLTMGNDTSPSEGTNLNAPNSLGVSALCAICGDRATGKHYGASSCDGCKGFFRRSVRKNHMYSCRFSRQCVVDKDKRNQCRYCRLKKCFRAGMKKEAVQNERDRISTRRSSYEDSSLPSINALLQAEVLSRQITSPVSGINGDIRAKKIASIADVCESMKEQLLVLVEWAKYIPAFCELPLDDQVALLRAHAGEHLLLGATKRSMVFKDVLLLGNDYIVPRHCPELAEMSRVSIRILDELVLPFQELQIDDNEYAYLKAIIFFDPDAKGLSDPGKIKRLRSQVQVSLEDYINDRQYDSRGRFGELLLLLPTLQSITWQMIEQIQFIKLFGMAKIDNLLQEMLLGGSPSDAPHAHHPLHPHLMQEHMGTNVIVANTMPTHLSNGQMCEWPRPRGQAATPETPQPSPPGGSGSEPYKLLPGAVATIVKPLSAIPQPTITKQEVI
MLL AF4-AF9 inh – MLL-AF4/AF9 protein interaction inhibition; hit rate 0.47% among 350,000; inhibition, % at 10 µM; P42568; AlphaScreen, biotin-AF4 peptide binding to FLAG-AF9;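 active = every replicate reaching a set inhibition limit, whatever the replicate mean, cut at about 25% in these data; inconclusive = mean inhibition reaches that limit but some replicates miss it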;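 also: 0% = plate neutral control median and 100% = total signal loss; the record names both 10 and 1 µM as test concentration; the first replicate is given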
Vif A3G – HIV-1 Vif–A3G interaction blockers – biochemical, TR-FRET, GST-Vif 1-94, biotin-A3G peptide, dose response retest, primary screen (AID 1117319); TR-FRET GST-Vif / biotin-A3G peptide binding; higher % means a stronger effect; test concentration not given here; strong numbers were not always called active; inhibition, %; hits with a dose series show IC50 in µM; hit rate 0.57% among 260,000;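 active = above the screen mean plus three standard deviations and confirmed in dose response; inconclusive = results disagree or hit not tested in dose response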;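 also: Vif residues 1-94 fused to GST binding biotinylated APOBEC3G peptide 110-148; 0% = full assay without inhibitor and 100% = GST in place of GST-Vif; retest series ran down from 100 µM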
Ecoli rRNA inh – inhibits bacterial ribosomal RNA function over humanized ribosomes; GFP signal change (wild-type ribosome), % (test concentration not listed); hit rate 1.6% among 350,000; E. coli WT GFP vs humanized-ribosome RFP mutants, fluorescence, 24 h; hits give low values; DMSO median 0, no signal -100;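 active = significant combined selectivity score with lowered wild-type GFP, culture density cut under 30%, mutant RFP and density less affected; inactive = any of these conditions unmet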; also: one replicate is shown; some compounds called inactive have numbers as strong as hits
Ecoli rRNA inh OD600 – also measured in Ecoli rRNA inh; calls as there; OD600 change, %; measured here: OD600 growth;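 optical density of the mix in the first replicate; 0 = DMSO median and -100 = no signal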
Ecoli rRNA inh RFP – also measured in Ecoli rRNA inh; calls as there; RFP signal change, %; measured here: RFP humanized mutant strains;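 first replicate; 0 = DMSO median and -100 = no signal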
Starred values were filed as active, the others as inactive; & = joins results of further samples. The list is partial; the hit share may differ from the screen's.

Screening O=[N+]([O-])c1cccc(-c2noc(-c3ccco3)n2)c1 returned FGF22 binding inactive, E coli growth 0.7, ALR inh 1, HNF4A DNA FP -2.9, MLL AF4-AF9 inh -2.7, Vif A3G -5%, Ecoli rRNA inh 12, Ecoli rRNA inh OD600 13 and Ecoli rRNA inh RFP 0.7.
`CC(C)(O)[C@H](O)Cc1cc2ccc(=O)oc2cc1O[C@@H]1O[C@H](CO)[C@@H](O)[C@H](O)[C@H]1O` gave FGF22 binding inactive, E coli growth 0.74, ALR inh 0, HNF4A DNA FP 0.3, MLL AF4-AF9 inh -3.1, Ecoli rRNA inh -5, Ecoli rRNA inh OD600 -15 and Ecoli rRNA inh RFP 16.
For N#Cc1c(C(F)(F)F)cc(-c2ccccc2)[nH]c1=O the results were E coli growth 0.67, ALR inh -1, HNF4A DNA FP 2.4 and Vif A3G 3%.
For Cc1noc(C)c1NC(=O)N(C)C[C@H]1Oc2ccc(NS(=O)(=O)c3ccc(F)cc3)cc2CC(=O)N([C@H](C)CO)C[C@H]1C the results were FGF22 binding inactive, MLL AF4-AF9 inh 0.8, Ecoli rRNA inh 3, Ecoli rRNA inh OD600 -6 and Ecoli rRNA inh RFP -2.2.
`COc1cccc(NC(=O)Cn2nnc(C(=O)NCc3ccc4c(c3)OCO4)c2N)c1` gave FGF22 binding inactive, E coli growth 0.65, ALR inh -3, HNF4A DNA FP -0.7, MLL AF4-AF9 inh -0.3, Vif A3G -2%, Ecoli rRNA inh 5, Ecoli rRNA inh OD600 2 and Ecoli rRNA inh RFP 2.0.
`O=C(NCc1ccc2c(c1)OCO2)C1CCN(S(=O)(=O)c2ccc(F)cc2)CC1` gave FGF22 binding inactive, E coli growth 0.73, ALR inh 5, HNF4A DNA FP -1.7, MLL AF4-AF9 inh -5.2, Ecoli rRNA inh -7, Ecoli rRNA inh OD600 -1 and Ecoli rRNA inh RFP 0.5.
`COCCNC(=O)C[C@@H]1CC[C@@H]2[C@@H](COc3ccc(NC(=O)c4cc(C)on4)cc3C(=O)N2C)O1` gave FGF22 binding inactive, MLL AF4-AF9 inh -0.2, Ecoli rRNA inh 1, Ecoli rRNA inh OD600 -5 and Ecoli rRNA inh RFP 0.5.
For COc1ccc(S(=O)(=O)Nc2nc3c(s2)C(=O)CC(C)(C)C3)cc1 the results were FGF22 binding inactive, E coli growth 0.64, ALR inh 3, HNF4A DNA FP -1.3, MLL AF4-AF9 inh -3.3, Ecoli rRNA inh 0, Ecoli rRNA inh OD600 -2 and Ecoli rRNA inh RFP -1.2.
`CC(C)(C)c1csc(NNC(=O)c2ccc(Br)cc2)n1` gave FGF22 binding inactive, E coli growth 0.68, HNF4A DNA FP -2.2, MLL AF4-AF9 inh 5.4, Vif A3G -1%, Ecoli rRNA inh 9, Ecoli rRNA inh OD600 -7 and Ecoli rRNA inh RFP 58.
Screening CC(C)c1[nH]c(=O)c(C#N)c2c1COC(C)(C)C2 returned E coli growth 0.75, ALR inh -6, HNF4A DNA FP 5.6 and Vif A3G 11%.
`CCn1cc(C(=O)NCC2CCCO2)c(=O)c2cc(S(=O)(=O)N(C)C3CCCCC3)ccc21` (centres undefined) gave FGF22 binding inactive, E coli growth 0.69, ALR inh -44, HNF4A DNA FP -3.4, MLL AF4-AF9 inh 2.6, Vif A3G -5%&-1%, Ecoli rRNA inh 0, Ecoli rRNA inh OD600 -5 and Ecoli rRNA inh RFP 4.2.
Cc1ccc(C2CC(c3cccc(NS(C)(=O)=O)c3)=NN2S(C)(=O)=O)cc1 (centres undefined) was read as FGF22 binding inactive, E coli growth 0.68, ALR inh -4, HNF4A DNA FP 25, MLL AF4-AF9 inh 1.0, Vif A3G -4%, Ecoli rRNA inh 5, Ecoli rRNA inh OD600 1 and Ecoli rRNA inh RFP 0.7.
For O=C(Nc1sc2c(c1CN1CCOCC1)CCC2)c1ccc(F)cc1 the results were FGF22 binding inactive, E coli growth 0.67, ALR inh 31, HNF4A DNA FP 3.2, MLL AF4-AF9 inh -5.6 and Vif A3G inconclusive.
Screening Cc1ccc(/C=C2\CCOC2=O)cc1 returned FGF22 binding inactive, E coli growth 0.66, ALR inh -4, HNF4A DNA FP -3.7, MLL AF4-AF9 inh -0.1, Ecoli rRNA inh 3, Ecoli rRNA inh OD600 5 and Ecoli rRNA inh RFP 1.7.
Screening O=C(Nc1cccc(S(=O)(=O)N2CCCC2)c1)c1ccc(Cl)nc1 returned FGF22 binding inactive, E coli growth 0.68, ALR inh -1, HNF4A DNA FP 0.5, MLL AF4-AF9 inh -0.9, Vif A3G -9%, Ecoli rRNA inh -9, Ecoli rRNA inh OD600 -7 and Ecoli rRNA inh RFP 0.5.
Screening Cc1ccc(-c2cn3cccnc3n2)cc1NC(=O)c1c(-c2ccccc2Cl)noc1C returned E coli growth 0.64, ALR inh -18, HNF4A DNA FP -0.3 and Vif A3G 1%.
CC1CCN(C(=O)COC(=O)c2cc(Cl)c3c(c2)OCO3)CC1 was read as FGF22 binding inactive, E coli growth 0.68, ALR inh 0, HNF4A DNA FP 1.7, MLL AF4-AF9 inh 2.3, Vif A3G 6%, Ecoli rRNA inh -4, Ecoli rRNA inh OD600 -13 and Ecoli rRNA inh RFP -5.2.
`Cc1ccc(S(=O)(=O)N2CCN(c3ncnc4sccc34)CC2)cc1` gave FGF22 binding inactive, E coli growth 0.7, ALR inh -2, HNF4A DNA FP -4.0, MLL AF4-AF9 inh 1.6, Vif A3G 5%, Ecoli rRNA inh -12, Ecoli rRNA inh OD600 -15 and Ecoli rRNA inh RFP -0.6.
Cc1cc(C(=O)NCCC2=CCCCC2)ccc1[N+](=O)[O-] was read as FGF22 binding inactive, E coli growth 0.68, ALR inh -5, HNF4A DNA FP 0.6, MLL AF4-AF9 inh 2.5, Vif A3G -1%, Ecoli rRNA inh -35*, Ecoli rRNA inh OD600 -14* and Ecoli rRNA inh RFP -4.9*.
Screening CCc1ccc(OCCCC(=O)Nc2nnc(C3CCCO3)s2)cc1 (centres undefined) returned FGF22 binding inactive, E coli growth 0.71, HNF4A DNA FP -1.9, MLL AF4-AF9 inh -0.3, Ecoli rRNA inh 18, Ecoli rRNA inh OD600 14 and Ecoli rRNA inh RFP 1.8.

Compounds listed so far that have a thiophene ring, fused or not, in the order listed:
For O=C(Nc1sc2c(c1CN1CCOCC1)CCC2)c1ccc(F)cc1 the results were FGF22 binding inactive, E coli growth 0.67, ALR inh 31, HNF4A DNA FP 3.2, MLL AF4-AF9 inh -5.6 and Vif A3G inconclusive.
`Cc1ccc(S(=O)(=O)N2CCN(c3ncnc4sccc34)CC2)cc1` gave FGF22 binding inactive, E coli growth 0.7, ALR inh -2, HNF4A DNA FP -4.0, MLL AF4-AF9 inh 1.6, Vif A3G 5%, Ecoli rRNA inh -12, Ecoli rRNA inh OD600 -15 and Ecoli rRNA inh RFP -0.6.

Reprinted at random: two compounds from above, in no set order.
For O=C(Nc1sc2c(c1CN1CCOCC1)CCC2)c1ccc(F)cc1 the results were FGF22 binding inactive, E coli growth 0.67, ALR inh 31, HNF4A DNA FP 3.2, MLL AF4-AF9 inh -5.6 and Vif A3G inconclusive.
`Cc1ccc(S(=O)(=O)N2CCN(c3ncnc4sccc34)CC2)cc1` gave FGF22 binding inactive, E coli growth 0.7, ALR inh -2, HNF4A DNA FP -4.0, MLL AF4-AF9 inh 1.6, Vif A3G 5%, Ecoli rRNA inh -12, Ecoli rRNA inh OD600 -15 and Ecoli rRNA inh RFP -0.6.

Continuation.
Cc1ccc(N2C(N)=C(C#N)C(c3ccsc3)C3=C2CC(C)(C)CC3=O)cc1 (centres undefined) was read as E coli growth 0.69, ALR inh 15, HNF4A DNA FP 0.8 and Vif A3G -3%.
`O=C(N/N=C/c1ccncc1)C1CC1(c1ccccc1)c1ccccc1` (centres undefined) gave FGF22 binding inactive, ALR inh 5, HNF4A DNA FP 6.2, MLL AF4-AF9 inh 6.1, Vif A3G -10%, Ecoli rRNA inh -22*, Ecoli rRNA inh OD600 -18* and Ecoli rRNA inh RFP -4.5*.
`CC1=N/C(=C\c2ccc([N+](=O)[O-])cc2)C(=O)N1c1ccc(F)cc1F` gave FGF22 binding inactive, E coli growth 0.67, ALR inh -7, HNF4A DNA FP 3.5, MLL AF4-AF9 inh 5.1, Vif A3G 15%, Ecoli rRNA inh 3, Ecoli rRNA inh OD600 14 and Ecoli rRNA inh RFP 1.6.
Screening CN=c1scc(-c2cccs2)n1/N=C/c1ccccc1O returned FGF22 binding inactive, ALR inh 87*, HNF4A DNA FP 4.4, MLL AF4-AF9 inh 31*, Ecoli rRNA inh -27*, Ecoli rRNA inh OD600 -6.9* and Ecoli rRNA inh RFP 2.7*.
`Nc1nc2c(ncn2[C@@H]2O[C@H](CNS(=O)(=O)c3cccnc3)[C@@H](O)[C@H]2O)c(=O)[nH]1` gave FGF22 binding inactive, HNF4A DNA FP -2.2, MLL AF4-AF9 inh -1.8, Ecoli rRNA inh 14, Ecoli rRNA inh OD600 10 and Ecoli rRNA inh RFP -1.7.
Screening N/C(=N\OC(=O)Cc1ccc(-c2ccccc2)cc1)c1cccnc1 returned E coli growth 0.7, ALR inh -9, HNF4A DNA FP 1.3 and Vif A3G 4%.
`COc1cc(NS(=O)(=O)c2ccc3c(c2)C(C)(C)C(=O)N3C)cc(OC)c1` gave FGF22 binding inactive, E coli growth 0.72, ALR inh -3, HNF4A DNA FP -2.4, MLL AF4-AF9 inh 0.5, Ecoli rRNA inh -2, Ecoli rRNA inh OD600 -14 and Ecoli rRNA inh RFP 5.4.
Screening Cc1ccc(C(=O)NCC(=O)NC2CC2)cc1 returned FGF22 binding inactive, E coli growth 0.64, ALR inh 0, HNF4A DNA FP -5.0, MLL AF4-AF9 inh -5.6, Ecoli rRNA inh 0, Ecoli rRNA inh OD600 5 and Ecoli rRNA inh RFP -2.3.
For COc1cccc(CNC(=O)C2CCCN(c3nc4ccccc4o3)C2)c1 (centres undefined) the results were FGF22 binding inactive, E coli growth 0.73, ALR inh 0, HNF4A DNA FP 0.8, MLL AF4-AF9 inh -9.3, Vif A3G -3%, Ecoli rRNA inh 3, Ecoli rRNA inh OD600 7 and Ecoli rRNA inh RFP -6.8.
`CC=Cc1ccc2n(c1=O)C[C@H]1[C@H](CO)[C@@H](C(=O)N3CCCCC3)N(C(=O)CC3CC3)[C@@H]21` (mixture of isomers) gave FGF22 binding inactive, MLL AF4-AF9 inh -1.8, Ecoli rRNA inh -2, Ecoli rRNA inh OD600 0 and Ecoli rRNA inh RFP 2.8.
`CC(CC(=O)NCc1ccc(Cl)cc1)c1ccccc1` (centres undefined) gave FGF22 binding inactive, E coli growth 0.64, ALR inh -15, HNF4A DNA FP -0.7, MLL AF4-AF9 inh -0.3, Vif A3G 1%, Ecoli rRNA inh 4, Ecoli rRNA inh OD600 -3 and Ecoli rRNA inh RFP -1.2.
O=C(Nc1ccccc1)c1ccc2nsnc2c1 was read as E coli growth 0.59, ALR inh -20, HNF4A DNA FP -0.8 and Vif A3G -2%.
Screening Cc1ccc(NC(=O)c2cc(S(=O)(=O)NCC3CCCO3)ccc2F)cc1 (centres undefined) returned FGF22 binding inactive, HNF4A DNA FP -1.2, MLL AF4-AF9 inh -2.3, Vif A3G 1%, Ecoli rRNA inh -4, Ecoli rRNA inh OD600 -4 and Ecoli rRNA inh RFP 3.9.
`CCOC(=O)C1=C(c2ccccc2)NC(=S)NC1c1ccc(C)c([N+](=O)[O-])c1` (centres undefined) gave E coli growth 0.65, ALR inh 0 and HNF4A DNA FP 0.1.
For CCCOc1ccc(C2C(C(=O)c3ccc(C)o3)=C(O)C(=O)N2CCCn2ccnc2)cc1 (centres undefined) the results were E coli growth 0.67, ALR inh 42 and HNF4A DNA FP 2.1.
